SARS PLpro yeast = SARS-CoV PLP inhibition in yeast; 330,000 compounds, 0.19% hits; S. cerevisiae expressing SARS-CoV PLpro, growth rescue; control for the full effect not named in the record; AID 485353; Potency, µM (top dose mostly 32.9 µM), for the others: top-dose activity, positive = growth rescue; active means well fitted rising curve with a large enough effect; inconclusive means small, poorly fitted or top-dose-only effect; inactive means no such curve, though single readings can be large or run the other way; also: 0% is about no effect; nearly all actives have a fitted effect of over 55% in size; growth read by luminescence after 48 h
RE007 growth inh = less growth of the S. pombe RE007 Vpr strain; Potency, µM (series often up to 92.2 µM), for inactives: top-dose activity change, negative = less growth; 360,000 compounds, 0.21% hits; S. pombe RE007 Vpr strain, BacTiter-Glo ATP luminescence, 24 h; control for the full effect not named in the record; active = well fitted falling curve with a large enough effect; inconclusive = small, poorly fitted or top-dose-only effect; inactive = no such curve, though single readings can be large or run the other way;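 also: % is scaled to controls: 0 for no effect and ±100 for the full control effect; nearly all actives have a fitted effect of over 50% in size; the assay follows cell death caused by Vpr and the record does not say whether a fall means rescue or toxicity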
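Fission yeast RE007 carrying one integrated HIV-1 vpr copy, seeded at OD 0.01 in PMG+AL medium with 23 nL pinned compound. Grown 24 h at 30 degrees; viability read by BacTiter-Glo luminescence after 5 min.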
StopGo reporter = lowers the luciferase signal of an FMDV 2A StopGo reporter; Potency, µM (highest dose often 57.9 µM), without a hit: top-dose signal change, negative = less light; human cells with a luciferase reporter of 2A StopGo recoding; control for the full effect not named in the record; 410,000 compounds, 1.2% hits; AID 1159524; active = well fitted falling curve with a large enough effect; inconclusive = small, poorly fitted or top-dose-only effect; inactive = no such curve, though single readings can be large or run the other way; tested in HEK293T cells; also: % is scaled to controls: 0 for no effect and ±100 for the full control effect; nearly all actives have a fitted effect of over 45% in size; luciferase light after 4 h
* = called active by the depositor; u = inconclusive; [ ] = dose if it differs, or a comment. Potency is read from the fitted curve at half-maximal effect. A portion of the library, so the mix of outcomes need not match the whole.

entry | molecule | RE007 growth inh | StopGo reporter | SARS PLpro yeast
1 | CCOC(=O)C1=C(C)N(C[C@@H]2CC[C@@H](Cc3ccc(-c4ccccc4)cc3)O2)C(=O)NC1c1ccc(-c2ccccc2)cc1 (stereo not given in full) | -14% | -10% | 10%
2 | CCN1C(=O)[C@H]2[C@@H](c3ccc(C)cc3)N3C(=O)N(c4ccc(OC)cc4)C(=O)[C@@]3(Cc3ccccc3)[C@H]2C1=O | -1% | -15% | 10%
3 | O=C(/C=C/c1cccc([N+](=O)[O-])c1)Nc1ccccn1 | 0% | 30%[activator] | 3%
4 | CCN(CC)c1ccc(C(=O)N/N=C/c2ccccc2OC(F)F)cc1 | 14% | 26% | 8.9µM*
5 | CC[C@H](C)C(N)c1cn([C@@H](CC(N)=O)C(=O)N2CCNCC2)nn1 (stereo not given in full) | 0% | -23% | 1%
6 | CN(CC(=O)Nc1ccccc1Cl)C(=O)c1ccc(-c2cccc(C(F)(F)F)c2)o1 | -3% | -7% | -2%
7 | CSCCC(NC(=O)c1ccc(Cl)cc1Cl)C(=O)N1CC(C)OC(C)C1 (stereo not given) | 1% | -16% | -1%
8 | C=CCNS(=O)(=O)NC(=O)C1=C(N2CCCC2)COC1=O | 3% | 0% | 5%
9 | CCOC(=O)C1CCCN(C(=O)c2cccc(S(=O)(=O)N3CCCC3)c2)C1 (stereo not given) | 2% | -14% | 12%
10 | O=C(NCc1cccc(F)c1)c1cccc2c1C(=O)c1ccc(N3CCCC3)cc1S2(=O)=O | 2% | 24% | -16%
11 | O=C(COC(=O)c1cc([N+](=O)[O-])ccc1NCCO)NCc1cccs1 | 5% | -8% | 0%
12 | COc1ccc(Cl)cc1NC(=O)CN(C)C(=O)CSc1ccc2c(c1)OCCO2 | 5% | -18% | -1%
13 | CN1CCN(S(=O)(=O)c2cccc(C(=O)Nc3sccc3C#N)c2)CC1 | -6% | 3% | -5%
14 | Cc1ccc([N+](=O)[O-])c(C(=O)Nc2cccnc2Cl)c1 | -2% | -1% | 1%
15 | CCCC1CCc2[nH]nc(C(=O)NN)c2C1 (stereo not given) | -9% | 30% | -1%
16 | CCOc1ccc(NC(=O)COC(=O)Cn2nc(C)c([N+](=O)[O-])c2C)cc1OCC | -3% | -10% | 0%
17 | O=c1cc(-c2ccc(O)c(O)c2)oc2cc(O[C@@H]3O[C@H](CO)[C@@H](O)[C@H](O)[C@H]3O)cc(O)c12 | 0% | 45%[activator] | 7%
18 | CC(Oc1cccc(Cl)c1)C(=O)Nc1cc(S(=O)(=O)N2CCOCC2)ccc1N1CCCC1 (stereo not given) | -3% | -3% | 1%
19 | COC(=O)c1ccc(N=Cc2c(-c3ccccc3)[nH][nH]c2=O)cc1 | -2% | 10% | 1%
20 | CCC(C)Sc1cc(-c2nc3cc(C)ccn3c2NC2CCCCC2)ccc1OC (stereo not given) | u | u | 1%
21 | CCN(CC)C(=O)c1cccc(NC(=O)C2=COCCO2)c1 | -9% | -13% | 2.2µM*
22 | CC[C@]12c3[nH]c4cc(-c5ccco5)ccc4c3CCN1C(=O)[C@@H](CC(=O)NCc1ccc(OC)c(OC)c1)C[C@@H]2C(=O)N1CCN(C(=O)C2CC2)CC1 | 4% | -23% | 7%
23 | COc1cccc(C(=O)O[C@@H]2[C@H](Cc3ccccc3)NS(=O)(=O)[C@H]3C[C@@H]4C=C[C@]23O4)c1 | 0% | 13% | -2%
24 | CC1CCN(CC(=O)Nc2ccccc2C(=O)NC2CC2)CC1 | 22% | -14% | 6%
25 | c1ccc(CSc2nnc3ccc(-c4ccco4)nn23)nc1 | -10% | -19% | 3%
26 | CC(C)=CCC/C(C)=C/CNC(=O)C[C@H]1C[C@H](C(=O)N(C(C)C)C(C)C)[C@@]2(C)c3[nH]c4ccc(Cl)cc4c3CCN2C1=O | -23% | u | -4%
27 | CCN(Cc1ccc2c(c1)OCCO2)C(=O)CN1C(=O)NC2(CCc3ccccc32)C1=O (stereo not given) | 12% | -9% | 0%
28 | CCCCN([C@H](CO)C(C)C)S(=O)(=O)c1ccccc1Br | -9% | 0% | 11%
29 | Cc1cc(C(=O)OCC(=O)N2CC(C)OC(C)C2)ccc1[N+](=O)[O-] (stereo not given) | -5% | 0% | 0%
30 | COc1ccc(C(=O)Nc2nc(-c3ccccn3)cs2)cc1S(=O)(=O)N1CCOCC1 | 0% | u | -1%
31 | O=C(CN1C(=O)CCC1=O)Nc1ccc(Cc2ccc(NC(=O)CN3C(=O)CCC3=O)cc2)cc1 | 21% | -6% | 1%
32 | Cc1ccc(CS(=O)(=O)CCC(=O)O)cc1 | -1% | -9% | 1%
33 | Cc1ccc(C(=O)NCC(=O)N/N=C/c2cccs2)cc1[N+](=O)[O-] | -19% | -6% | -1%
34 | O=C1C=C(c2cccc(CO)c2)C[C@@H](c2ccc(Cl)cc2)C1 | -1% | u | 0%
35 | O=C(C[C@@H]1C/C=C\CCC(=O)OC[C@@H]2CCCN2C1=O)N[C@@H](CO)Cc1ccccc1 | -4% | 8% | -8%
36 | NCCCn1c(C(=O)c2cc(Cl)c(N)c(Cl)c2)c2ccc([N+](=O)[O-])cc2[n+]1[O-] | -15% | -14% | 8%
37 | Cc1ccccc1Nc1nc(N)nc(COC(=O)c2ccc([N+](=O)[O-])o2)n1 | 2% | -11% | 6%
38 | COc1ccc(N2CCN(C(=O)COC(=O)c3ccc(-n4nc(C)cc4C)cc3)CC2)cc1 | -4% | 0% | 0%[6.58 µM]
39 | COc1cccc(CNC(=O)CCS(=O)(=O)c2ccccc2Cl)c1 | -11% | -1% | 2%
40 | COC(=O)[C@]1(C)N[C@H](c2ccc(-c3ccc(Cl)c(Cl)c3)c(OC)c2)[C@@H]2C(=O)N(C)C(=O)[C@@H]21 | 3% | -11% | 0%
41 | NS(=O)(=O)c1ccc(NC(=O)COC(=O)/C=C/c2ccc([N+](=O)[O-])cc2)cc1 | 0% | -19% | -1%
42 | Cc1nn(C2CCS(=O)(=O)C2)c(C)c1CN(C)C(=O)c1ccc(Cl)cc1 (stereo not given) | -1% | -30% | 0%
43 | CCOC(=O)C1CCN(C(=O)C(CCSC)NC(=O)COc2ccccc2)CC1 (stereo not given) | 6% | 67%[activator] | 5%
44 | COc1ccc(N(CC(=O)NCc2cccs2)S(=O)(=O)c2ccc(F)cc2)cc1 | 12% | 18% | -1%
45 | CC1=CC(=O)OC2CC3OC4C[C@@H](C)C5OC6CC7O[C@]8(C)C/C=C\C9OC%10CC%11OC(CC(C)C%12OCCO%12)CC(O)[C@]%11(C)OC%10CC9OC8C[C@]7(C)O[C@]6(C)CCC5OC4C[C@]3(C)OC12 (stereo not given in full) | 27% | 0% | 1%
46 | C[C@H](CO)N1C[C@H](C)[C@@H](CN(C)C(=O)Nc2ccc(C(F)(F)F)cc2)Oc2ccc(NC(=O)NC3CCCCC3)cc2C1=O | -7% | -8% | -1%
47 | CC1(c2ccccc2)NC(=O)N(CC(=O)Nc2ccc(N3CCOCC3)cc2)C1=O (stereo not given) | 5% | -29% | -1%
48 | COc1ccccc1C(C)Nc1ccc(S(=O)(=O)N2CCN(C)CC2)cc1[N+](=O)[O-] (stereo not given) | -13% | -13% | -8%
49 | Cc1cccc(C(=O)NCC(=O)OCc2nc(N)nc(Nc3ccccc3C)n2)c1 | 7% | -7% | 2%
50 | O=C(O)c1ccc(C=NNC(=O)c2ccccc2NS(=O)(=O)c2cccs2)cc1 | 6% | -12% | 1%
51 | CSC(C(=O)c1cc2ccccc2o1)c1ccccc1 (stereo not given) | 0% | 52%[activator] | 3%
52 | COc1ccc(S(=O)(=O)N2CCN(C(=O)c3cc(C)oc3C)CC2)cc1OC | -10% | -29% | -2%
53 | O=C(COc1ccc(F)cc1Br)NCCCN1CCCC1=O | -2% | -4% | 0%
54 | C[C@H]1CN([C@@H](C)CO)C(=O)Cc2cc(NC(=O)CCC(F)(F)F)ccc2O[C@H]1CN(C)CC1CC1 | -13% | -10% | -1%
55 | COC(=O)C1=C(c2ccc(-c3ccccc3)c(F)c2)C[C@@H]2CC[C@H]1N2C(=O)NC1CC1 | -6% | -13% | u
56 | CN[C@@H](C)C(=O)NC[C@H]1O[C@@H](n2cnc3c(N)ncnc32)[C@H](O)[C@@H]1O | 10% | -12% | 12%
57 | O=C(Nc1ccc(F)cc1)C1CCCN(C2=NS(=O)(=O)c3ccccc32)C1 (stereo not given) | -2% | -22% | 0%
58 | CCCCCN1C(C)=CC(=C(C#N)C#N)C=C1C | -8% | 6% | 0%
59 | COC(=O)C1=C(c2ccc3ccccc3c2)C[C@@H]2CC[C@H]1N2C(=O)NC(C)C | -2% | -3% | -4%
60 | Cn1c(CCC(=O)O)nc2cc(S(=O)(=O)N3CCCCC3)ccc21 | -3% | -15% | 10%

(cont.)
entry | molecule | RE007 growth inh | StopGo reporter | SARS PLpro yeast
61 | COC(=O)[C@@H]1C(OC(=O)c2ccccc2)CC2CCC1N2C (stereo not given in full) | -12% | -5% | 1%
62 | CC(C)(O)[C@H](O)Cc1cc2ccc(=O)oc2cc1O[C@@H]1O[C@H](CO)[C@@H](O)[C@H](O)[C@H]1O | -4% | -9% | 9%
63 | C[C@H](CO)N1C[C@H](C)[C@@H](CN(C)C(=O)Nc2ccc3c(c2)OCO3)Oc2ccc(NC(=O)NC3CCCCC3)cc2C1=O | -4% | 2% | -7%
64 | O=C(NN=Cc1ccc(F)cc1)c1ccccc1NS(=O)(=O)c1cccs1 | -4% | -2% | 5%
65 | C[C@H]1[C@H](c2ccccc2)C[C@@H](C(=O)O)C1(C)C | 9% | -11% | 5%
66 | CC[C@]12c3[nH]c4ccc(OC)cc4c3CCN1C(=O)C(CC(=O)NCCC1=CCCCC1)C[C@@H]2C(=O)N1CCN(C(=O)C2CC2)CC1 (stereo not given in full) | 6% | -23% | -12%
67 | NC(=S)N/N=C/c1ccc(-c2ccc([N+](=O)[O-])cc2)o1 | -12% | 15% | -1%
68 | COc1ccc([C@H]2CC(=O)C=C(c3ccc4ncccc4c3)C2)cc1 | 3% | -10% | -5%
69 | COc1ccc(CCNC(=O)Cn2c(=O)n(CC3CCCO3)c(=O)c3ccccc32)cc1OC (stereo not given) | -5% | -7% | -2%
70 | CCOC(=O)c1ccc(N2C(=O)C3CCCN3C2=S)cc1 (stereo not given) | 2% | 13% | 1%
71 | COc1ccc(COC(=O)C2CCN(C(=O)c3ccc(Cl)cc3)CC2)cc1F | -16% | -6% | 1%
72 | CCCCN(C(=O)c1ccc(OC(F)(F)F)cc1)c1c(N)n(CCC)c(=O)[nH]c1=O | 22% | 8% | 1%
73 | CNC(=S)Nc1cccc(C(C)=O)c1 | 16% | 14% | 1%
74 | CC(=O)OCC1=C(C(=O)O)N2C(=O)C(NC(=O)C(C)Cn3nc(C)c(Cl)c3C)C2SC1 (stereo not given) | -7% | -19% | -3%
75 | Cc1ccc(NC(=O)NCc2ccc3[nH]c(C)cc3c2)cc1 | 2% | 37%[activator] | 0%

Assay outcomes deposited in PubChem BioAssay by National Center for Advancing Translational Sciences (NCATS).
